NPYLR7 ag: agonists of mosquito NPYLR7 receptor, primary screen, cell-based, Aedes aegypti, calcium fluorescence, mosquito biting behavior. Aedes aegypti neuropeptide Y-like receptor 7 (NPYLR7). HEK293T NPYLR7/Galpha15, GCaMP6s calcium fluorescence. activation, % at 10 µM. actives 0.15% (n = 270,000); in the data active = activation above about 40%;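 note: 0% = vehicle and 100% = reference agonist at the receptor; some compounds past the cut are filed as inactive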
NPYLR7 ag max-min: also measured in NPYLR7 ag; calls as there; activation, %; measured here: Max-Min RFU normalised activation; some inactives read as strong as hits;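 span of the calcium signal over five minutes; 0% = vehicle and 100% = native peptide agonist; compound fluorescence can raise it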
Numbers without * were called inactive; & = joins results of further samples. This is a subset; rates above refer to the full screens.

Compound	NPYLR7 ag	NPYLR7 ag max-min
C[C@@H](Oc1ccc(Oc2cnc3ccc(Cl)cc3n2)cc1)C(=O)O	6	-42
COc1ccc2oc(=Nc3cccc(C(N)=O)c3)c(C(N)=O)cc2c1	-1	-1
CNC(=O)[C@@H]1[C@@H](OC)C(=O)N(C)C12CCN(C(=O)c1ccc3c(c1)OCO3)CC2	8	20
Cc1ccc(C(=O)CSc2ncc(C(=O)Nc3ccccc3)c(=O)n2C)cc1	9	2
COc1ccc2c(c1OC)C(=O)OC2CC(=O)c1ccc([N+](=O)[O-])cc1 (configuration not stated)	-6	-15
CCCc1ccccc1N1C(=O)CSC1c1cccc(NC(=O)c2cc(OC)cc(OC)c2)c1 (configuration not stated)	13	15
C=CCN(Cc1ccccc1C)C(=O)Cc1nc(C)sc1C	-20	-19
COC(=O)c1ccc(C(=O)OC)c(NC(=O)c2cc3ccccc3oc2=O)c1	-6	-12
CC(C)(C)c1ccc(-c2nc(-c3nonc3N)no2)cc1	0	-3
Cc1nccc(-c2ccccc2)c1C(=O)N1CC(c2cccnc2)C1	12	-2
Cc1cccc(N(CC(=O)NCCN2CCNC2=O)S(C)(=O)=O)c1	-1	-2
CCOC(=O)c1cnn(-c2cccc(NC(=O)NC3CCN4CCCCC34)c2)c1C (configuration not stated)	0	18
O=C1CN2CC(c3ccccc3S2(=O)=O)N1Cc1ccccc1 (configuration not stated)	-4	4
CS(=O)(=O)N1CCN(CN2C(=O)C(=O)c3c(Cl)ccc(F)c32)CC1	4	2
COc1cc(OC)c(OC)cc1CNC(=O)N1CCCN(C2CC2)CC1	-6	-6
CC1(COC(=O)c2ccc(-n3cccc3)cc2)COC1	5	5
Cc1ccc(-n2nnc3c(=O)n(CC(=O)Nc4ccccc4C)cnc32)cc1	-3	1
O=c1cc(CSc2nnc(Cc3cccs3)n2C2CC2)nc2sccn12	0	2
Cc1cc(NC(=O)Nc2ccc(N(C)C)cc2C)n(C)n1	-23	-25
CCc1ccc2nc(N(Cc3cccnc3)C(=O)C3=COCCO3)sc2c1	-14	-9

Random excerpt: 2 entries already listed
Compound	NPYLR7 ag	NPYLR7 ag max-min
CC(C)(C)c1ccc(-c2nc(-c3nonc3N)no2)cc1	0	-3
COc1ccc2c(c1OC)C(=O)OC2CC(=O)c1ccc([N+](=O)[O-])cc1 (configuration not stated)	-6	-15

New compounds follow:
Compound	NPYLR7 ag	NPYLR7 ag max-min
CCN(CC)CC(=O)N1N=C(c2ccccc2F)CC1c1ccc(C)cc1C (configuration not stated)	-2	7
O=C(Nc1ccncc1)c1cn(CC2CCCO2)cc2c(=O)n(-c3ccccc3)nc1-2 (configuration not stated)	7	5
C=CCC(O)(CC=C)C(C)NC(=O)CCC1(CC)CCC(=O)N1 (configuration not stated)	9	2
COc1ccc(CCN(C)C2CCCN(C(=O)/C=C/c3ccco3)C2)cc1OC (configuration not stated)	19&2	9&2
O=C(NC1CC1)C(c1ccccc1)N1CCN(S(=O)(=O)c2cccc(Br)c2)CC1 (configuration not stated)	-8	-5
COC(=O)c1ccccc1C(=O)N(CCCN(C)C)c1nc2c(C)ccc(Cl)c2s1	4	3
CCn1cnnc1CN(C)c1ccc(-c2nc(-c3ccccc3F)no2)cn1	20	11
CC(C)c1ccc(Nc2ncnc3c2nnn3C)cc1	11	6
O=C(Nc1nc(-c2ccccc2)cs1)c1cncc(Br)c1	6	4
CN(CCNc1ncc(F)c(N2CCOCC2)n1)S(C)(=O)=O	-1	18
O=C(c1ccc(-c2ccccc2)c(F)c1)C1CCCN(C(=O)c2n[nH]c3c2CCC3)C1 (configuration not stated)	2	1
O=C(COCc1ccccc1)N1CCC(n2c(=O)oc3ccc(Cl)cc32)CC1	2	0
CC(C)c1csc(CN2CCC(n3nccc3NC(=O)c3ccccc3)CC2)n1	11&13	-1&4
CCCCCn1c(=O)c2c(nc3n(CCO)c(C)cn23)n(C)c1=O	2	-2
Cc1ccc(Cc2nsc(N3CCC(CNC(=O)Nc4ccc(C)cc4C)CC3)n2)cc1	-6	3
CNC(=O)c1cc(NC(=O)NC(C)c2cn(C)nc2C)ccc1F (configuration not stated)	15	6
O=C(CCCc1cccs1)N1CCN(S(=O)(=O)c2cc(F)ccc2F)CC1	-2	-2
CN(CC(=O)c1ccc(O)cc1)Cc1ccnc2ccccc12	22	8
Cc1cccc(-c2cc(N)n(-c3ccc(C(=O)NCc4cccnc4)cc3)n2)c1	-10	-15
CC1CCCC(NC(=O)NCc2ccccc2-n2ccnc2)C1C (configuration not stated)	3	1

Single records, from the list above. Screens in order: NPYLR7 ag, NPYLR7 ag max-min
Listed for `COC(=O)c1ccccc1C(=O)N(CCCN(C)C)c1nc2c(C)ccc(Cl)c2s1` : 4, 3
Listed for `O=C(NC1CC1)C(c1ccccc1)N1CCN(S(=O)(=O)c2cccc(Br)c2)CC1` (configuration not stated) : -8, -5
Listed for `CC(C)c1ccc(Nc2ncnc3c2nnn3C)cc1` : 11, 6
Listed for `O=C(Nc1nc(-c2ccccc2)cs1)c1cncc(Br)c1` : 6, 4
Listed for `Cc1cccc(-c2cc(N)n(-c3ccc(C(=O)NCc4cccnc4)cc3)n2)c1` : -10, -15

Next records:
Compound	NPYLR7 ag	NPYLR7 ag max-min
COC(=O)c1sccc1NS(=O)(=O)c1ccc(NC(C)=O)cc1	3	0
Nc1cc2c(cc1Cl)C(=O)c1ccccc1C2=O	-5	-7
C[C@@H]1CC[C@@]23CCC4(C)[C@@](C=CC5[C@@]6(C)CC[C@H](O)C(C)(C)C6CC[C@]54C)(OC2=O)C3[C@H]1C (some centres not stated)	-9	-8
Cc1cc(O)c(C(c2ccccc2)N2CCN(CCO)CC2)c(=O)n1Cc1cccnc1 (configuration not stated)	2	-2
C#CCN(C)C(=O)c1cc(-c2cc(OC)c(OC)c(OC)c2)nc2ccccc12	0	11
O=C(NCc1ccc(Cl)cc1)c1scnc1Cl	-1	-2
O=C(c1ccc2ncsc2c1)N(CCN1CCOCC1)c1nc2ccc(F)cc2s1	10	6
CCc1nc2c(OCCC3CCCCC3)cccn2c1N(C)C(=O)CC(C)C	10	11
O=C(CN1CN(c2ccccc2)C2(CCN(C(=O)c3cccc(C(F)(F)F)c3)CC2)C1=O)NCc1ccco1	12	17
COCCN1C(=O)N(C2Cc3ccccc3C2)C(=O)C12CCN(Cc1ccc(NC(C)=O)cc1)CC2	7	-2
Cc1ccn(C(=O)c2ccc(NC(=O)C3CC3)cc2)n1	-4	-4
COCC(=O)N1CCC(C(NC(=O)c2ccccc2)C(=O)NCc2ccccc2)CC1 (configuration not stated)	3	1
CC(CNC(=O)N1CCSC(C(C)C)C1)Cn1cccn1 (configuration not stated)	2	3
CCc1ccccc1NC(=O)NCCNc1ccc(C)nn1	-16	-22
Cc1ccn2c(=O)c(NC(=O)CC3CCCC3)c(C)nc2c1	2	0
O=C(Nc1ncccn1)c1c(O)c2ccccc2[nH]c1=O	5	3
O=C(NCC1CCN(c2nc(Cc3ccc(F)cc3)ns2)CC1)C1C[C@H]1c1ccccc1 (some centres not stated)	-11	-3
Cc1nn(C(C)C)c(C)c1CN1CCC(c2cc(C(C)C)n[nH]2)CC1	0	-6
C1=CCC(c2cn(Cc3nc(-c4ccccc4)n[nH]3)nn2)CC1 (configuration not stated)	-3	-3
O=C1CCCc2c1cnn2-c1nc2ccccc2s1	2	0
O=C(Cn1nc(-c2cccs2)c2sc(N3CCCCC3)nc2c1=O)NCc1ccccc1	1	-5
CCCCCNC(=O)C1CC(=O)N(N(C)c2ccccc2)C1 (configuration not stated)	-3	-7
CN(CCC(=O)Nc1cc(S(=O)(=O)N(C)C)ccc1Cl)Cc1ccco1	12	4
CCCN(CCC(=O)NCCOC)c1nc(C2CC2)nc2ccccc12	-5	6
CCc1ncc2c(n1)CN(C(=O)c1cccc(OC)c1C)C2	1	-8
CCc1ccc(OC)c(S(=O)(=O)n2cc(C)nc2CC)c1	4	2
CC1=C(C(=O)OCc2ccccc2)C(c2ccc(C(F)(F)F)cc2)NC(=O)N1C (configuration not stated)	-14	-18
CCOC(=O)c1cnc2cc(C(F)(F)F)ccc2c1Nc1ccc(S(=O)(=O)NC(C)C)cc1	8	6
O=C(O)c1cc(=O)c2c(OCC(O)COc3cccc4oc(C(=O)O)cc(=O)c34)cccc2o1	-4&-12&-1&2&-9	-10&-14&-6&-2&-13
CCOC(=O)c1ccc2c(c1)nc(SCc1cccc(C#N)c1)n2Cc1cccc(F)c1	17	25
CCc1c(C)cc(C(=O)N2CCC3(CN(C)C(=O)O3)C2)c(=O)n1C (configuration not stated)	8	6
c1cncc(-c2nc(Sc3nnc(NC4CC4)s3)c3ccccc3n2)c1	-2	9
C=CCn1c(=O)c2c(nc3n(CCC)c(C)cn23)n(C)c1=O	-2	-2
CN(C)S(=O)(=O)N1CCC(Oc2cccc(C(=O)N3C[C@H]4CC[C@H]3C4)c2)CC1	-2	-5
CCOC(=O)N1CCN(c2nc(-c3ccc(Oc4ccccc4)cc3)nc3ccccc23)CC1	4	3
Cc1c(C(=O)N(C)C2CCCCC2)sc2nc3ccc(N)cc3n12	-6	-9
CNCCCOc1cc(OC)cc(OC)c1	1	-2
C/C(=N\N=C(N)c1cncc(Cl)n1)c1cccs1	-3	-4
C=CCC(=O)N1CCc2c([nH]c3ccccc23)C1c1ccc(CC)cc1 (configuration not stated)	-7	-14
O=C(c1c(F)c(F)cc(F)c1F)N1CCC(Cc2ccc(-c3ccccc3)cc2)CC1	6	1
CC(C)c1ccc(NC2CCCN(C(=O)c3cccc(N4CCOCC4)c3)C2)cc1 (configuration not stated)	2	0
CN(C)CCCOc1nc2c(c(=O)n(C)c(=O)n2C)n1C	-1	-2
COc1cc(OC)cc(C(=O)N2CCc3cc(OC)c(OC)cc3C2c2cccc(Cl)c2)c1 (configuration not stated)	12	6
CCOc1ccccc1C(=O)Nc1ccc(N2CCN(C(=O)[C@H](C)OC(C)=O)CC2)nc1	23	12
Cc1ccccc1C(=O)Nc1nnc(SCc2c(Cl)cccc2Cl)s1	30	39
O=C(N[C@@H]1CCC[C@H]1OCc1ccccc1)c1cc2n(n1)CCCNC2	-2	-2
O=C(CN(CCCN1CCOCC1)C(=O)Nc1ccc([N+](=O)[O-])cc1)N(Cc1ccc(F)cc1)Cc1ccco1	-1	5
CCCCCOc1ccc(C(=O)N2CCC(O)(c3ccc(Cl)cc3)CC2)cc1OCCCCC	-8	-13
CC(Oc1ccccc1)C(=O)N1CCN(C(c2ccccc2)c2ccc(Cl)cc2)CC1 (configuration not stated)	-4	-4
N#CCCNS(=O)(=O)c1cccc(C(=O)Nc2cccc3c2CCCC3)c1	8	5
Cc1nn(-c2ccccc2)c2nc(CC(C)C)nc(N3CCN(C(=O)Cc4ccc(F)cc4)CC3)c12	-1	4
CC(=O)OCC(=O)[C@H]1CCC2C3CCC4=CC(=O)CC[C@]4(C)C3CC[C@@]21C (some centres not stated)	-1	-14
COc1ccc(CN(CCc2c[nH]c3ccccc23)C(=O)CN(C(=O)c2ccccc2Cl)C2CC2)cc1OC	-7	4
CN1CCNC(=O)C12CCN(C(=O)Cn1nc3ccccc3n1)CC2	5	2
CCC1SC(=C(C#N)C(=O)NCc2ccco2)N(c2ccc(F)cc2)C1=O (configuration not stated)	13	9
O=C(NCc1ccccc1)c1cnc(N2CCN(Cc3ccccc3)C2=O)s1	-1	-3
Cc1cccnc1NC(=O)C1CCCN(c2c(F)cc(C#N)cc2F)C1 (configuration not stated)	-2	0
N#Cc1c(SCc2ccccc2)nc2c(c1-c1cccs1)CCCC2	0	-2
Cc1ccc(Cc2nc(N3CCCN(Cc4ccccc4O)CC3)c3c(C)nn(-c4ccccc4)c3n2)cc1	10	13
Cn1c(=O)c2c(nc(Br)n2CCCc2ccccc2)n(C)c1=O	1	1

Continuation:
Compound	NPYLR7 ag	NPYLR7 ag max-min
Cc1cc(C)n2nc(CC(=O)N3CCCC3Cn3cccn3)nc2n1 (configuration not stated)	1	-5
O=C(CCCCCNC(=O)OCc1ccccc1)NCCc1nc2ccccc2[nH]1	-14	-22
COc1ccc(OC)c(NC(=O)Cn2ccn3nc(-c4ccc(C)cc4)cc3c2=O)c1	5	4
COc1cccc(CN2C[C@H]3CC=CC[C@H]3C2)c1OCCN1CCOCC1	7	4
COc1ccc(Br)cc1S(=O)(=O)N1CCc2ccccc2C1	5	6
C[C@@H]1CN(Cc2ccc3c(c2)CN(Cc2cccn2-c2ccccn2)CCO3)C[C@H](C)O1	21	8
CC(C)CN1CCC1(C)C(=O)NCCc1cccs1 (configuration not stated)	7	0
COc1cccc(C(=O)Nc2ccc(Nc3ccc(-n4nc(C)c(C)c4C)nn3)cc2)c1	-3	-9
CC(N)(C(=O)O)c1ccc(C(=O)O)cc1 (configuration not stated)	3	-37
COCCCNCC(=O)N(CCc1c[nH]c2ccccc12)Cc1ccc(C(F)(F)F)cc1	4	1
CNC(=O)CC1CCN(CCC(F)(F)F)CC1	2	-1
COc1ccc(-c2nc(C)c(-c3ccc(SCC(=O)Nc4nc(C)cs4)nn3)s2)cc1	2	1
CCc1ccc(C(=O)N2CCC3(CC2)OCC(C(=O)N2CCN(C(C)=O)CC2)N3C(=O)c2ccc(F)cc2)cc1 (configuration not stated)	1	9
Cc1nonc1C1CCCN1C(=O)c1cn(-c2ccccc2)nn1 (configuration not stated)	14	11
Cc1nc(CN2CCN(C(=O)c3ccccc3C3CCNC3)CC2)no1 (configuration not stated)	5	4

Screens as filed in PubChem BioAssay.
